Screening data (PubChem)
RE007 growth inh: qHTS Assay for Inhibitors of the HIV-1 protein Vpr. S. pombe RE007 Vpr strain, BacTiter-Glo ATP luminescence, 24 h; control for the full effect not named in the record. Potency, µM (doses to about 92.2 µM), for inactives: at the top dose activity change, negative = less growth. 0.21% of 360,000 active. AID 651644, 2012; active = well fitted falling curve with a large enough effect; inconclusive = small, poorly fitted or top-dose-only effect; inactive = no such curve, though single readings can be large or run the other way;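 further: on the % scale 0 is the no-effect control and ±100 the full control effect; nearly all actives have a fitted effect of over 50% in size; the assay follows cell death caused by Vpr and the record does not say whether a fall means rescue or toxicity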
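Fission yeast RE007 carrying one integrated HIV-1 vpr copy, seeded at OD 0.01 in PMG+AL medium with 23 nL pinned compound. Grown 24 h at 30 degrees; viability read by BacTiter-Glo luminescence after 5 min.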
NS1 function inh: qHTS Assay for Inhibitors of Influenza NS1 Protein Function; S. cerevisiae slowed by influenza A NS1, growth recovery by OD600; Potency, µM (titrated, usually from 46.1 µM), without a hit: top-dose activity, positive = more growth; 0.4% of 270,000 active; further: actives are rising curves; nearly all actives have a fitted effect of over 50% in size
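S. cerevisiae expressing influenza A NS1, grown in glucose, washed, then diluted 1:100 into pH 6.0 -URA galactose medium with 23 nl compound. Growth recovery read as OD600; NS1-free strain serves as control.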
Cruzain inh noDet: qHTS Assay for Promiscuous and Specific Inhibitors of Cruzain (without detergent). Potency, µM, for the others: max response, negative = inhibition, actives largely listed as inhibitors. purified cruzain, Z-FR-AMC fluorescence, no detergent. Cruzipain (Trypanosoma cruzi), P25779. 2.3% of 200,000 active; active means well fitted curve in the direction sought with a large enough effect; inconclusive means small, poorly fitted or top-dose-only effect, or another doubt; inactive means no such curve, though single readings can be large; an effect the other way counts as inactive or inconclusive;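 further: plate controls were enzyme without inhibitor for no effect and buffer without enzyme for full effect; nearly all actives have a fitted effect of over 40% in size; top concentration of the series not given in the record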
Target sequence (P25779 123-467 limits assumed): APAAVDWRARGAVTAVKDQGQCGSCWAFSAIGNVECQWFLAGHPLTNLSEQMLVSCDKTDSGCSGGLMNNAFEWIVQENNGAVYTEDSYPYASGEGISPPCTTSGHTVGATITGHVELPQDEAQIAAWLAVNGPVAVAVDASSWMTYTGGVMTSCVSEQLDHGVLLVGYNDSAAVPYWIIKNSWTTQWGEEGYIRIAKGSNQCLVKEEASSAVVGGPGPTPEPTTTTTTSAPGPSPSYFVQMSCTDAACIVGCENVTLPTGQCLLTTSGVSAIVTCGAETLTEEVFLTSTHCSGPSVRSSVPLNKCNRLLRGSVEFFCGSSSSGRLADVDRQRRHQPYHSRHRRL
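Purified cruzain at 1.5 nM, pre-incubated 15 min with compound at room temperature in 100 mM sodium acetate pH 5.5, 5 mM DTT, 0.00005% Triton X-100. Reaction started with 2 uM Z-FR-AMC; AMC fluorescence increase over 60 s gives rate.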
SARS PLpro yeast: qHTS of Yeast-based Assay for SARS-CoV PLP. Potency, µM (doses to about 32.9 µM), for the others: at the top dose activity, positive = growth rescue. AID 485353, 2010. 0.19% of 330,000 active. S. cerevisiae expressing SARS-CoV PLpro, growth rescue; control for the full effect not named in the record; further: 0% is about no effect; nearly all actives have a fitted effect of over 55% in size; growth read by luminescence after 48 h
2A StopGo: High Throughput Screening for Foot and Mouth Disease Virus Antivirals; human cells with a luciferase reporter of 2A StopGo recoding; control for the full effect not named in the record; Potency, µM (doses to about 57.9 µM), inactives show at the top dose signal change, negative = less light; 1.2% of 410,000 active; AID 1159524, 2015; active = well fitted falling curve with a large enough effect; inconclusive = small, poorly fitted or top-dose-only effect; inactive = no such curve, though single readings can be large or run the other way; tested in HEK293T cells; further: on the % scale 0 is the no-effect control and ±100 the full control effect; nearly all actives have a fitted effect of over 45% in size; luciferase light after 4 h
Cruzain inh Det: qHTS Assay for Promiscuous and Specific Inhibitors of Cruzain (with detergent); Cruzipain (Trypanosoma cruzi), P25779; purified cruzain, Z-FR-AMC fluorescence, 0.01% Triton; Potency, µM, without a hit: max response, negative = inhibition, actives largely listed as inhibitors; 0.43% of 200,000 active; AID 1478, 2009; active means well fitted curve in the direction sought with a large enough effect; inconclusive means small, poorly fitted or top-dose-only effect, or another doubt; inactive means no such curve, though single readings can be large; an effect the other way counts as inactive or inconclusive;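 further: plate controls were neutral wells for no effect and buffer without enzyme for full effect; nearly all actives have a fitted effect of over 40% in size; top concentration of the series not given in the record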
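Detergent-containing arm of a paired screen for aggregation-based inhibition: 0.01% Triton X-100 present. Cruzain at 1.5 nM cleaved 2 uM Z-FR-AMC at pH 5.5 with 5 mM DTT; AMC fluorescence gain over 60 s measured activity.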
LASV entry inh: qHTS for Inhibitors of binding or entry into cells for Lassa Virus; Lassa virus pseudotype entry inhibition, cell reporter; control for the full effect not named in the record; Potency, µM (doses to about 37.9 µM), for inactives: at the top dose activity change, negative = inhibition, actives largely listed as inhibitors; 1.2% of 300,000 active; AID 540256, 2011; active means well fitted inhibition curve with a large enough effect; inconclusive means small, poorly fitted or top-dose-only effect, or effect the other way; inactive means flat fitted curve, though single readings scatter; tested in HEK293 cells; further: on the % scale 0 is the no-effect control and ±100 the full control effect; nearly all actives have a fitted effect of over 50% in size; luciferase read-out
MARV entry inh: qHTS for inhibitors of binding or entry into cells for Marburg Virus. Potency, µM (doses to about 37.8 µM), inactives show at the highest dose activity change, negative = inhibition, actives largely listed as inhibitors. 1.8% of 300,000 active. Marburg virus pseudotyped entry inhibition, cell reporter; control for the full effect not named in the record; about a third of the inactives were read at about 46 µM; active = well fitted inhibition curve with a large enough effect; inconclusive = small, poorly fitted or top-dose-only effect, or effect the other way; inactive = flat fitted curve, though single readings scatter; tested in HEK293 cells; about a fifth of its hits are not listed in these tables; further: on the % scale 0 is the no-effect control and ±100 the full control effect; luciferase read-out
The depositor's hits bear a star; ? = inconclusive; / = not tested or not shown; [ ] = another dose, or the depositor's remark. Unless noted, the call rests on the fitted dose curve; in most records, active means well fitted rising curve with a large enough effect; inconclusive means small, poorly fitted or top-dose-only effect; inactive means no such curve, though single readings can be large or run the other way. Potency means the concentration at half of the fitted maximal effect. No enrichment for hits. Share with any hit: about 4.5%.

SMILES	RE007 growth inh	NS1 function inh	Cruzain inh noDet	SARS PLpro yeast	2A StopGo	Cruzain inh Det	LASV entry inh	MARV entry inh
C=CCOCCN(CCOCC=C)C1=NS(=O)(=O)c2ccccc21	-4%	2%	/	-2%	0%	/	-4%	0%
COCCNC(=O)COc1ccccc1C	-2%	-53%	-9%	-7%	0%	1.7%	19%	23%
Cc1cccc(N(C(=O)c2snc(C(N)=O)c2N)C(C)C(=O)NCC2CCCO2)c1 (stereo not given)	-6%	-4%	/	-1%	-11%	/	2%	17%[46.1 µM]
O=C(NCc1ccccc1)c1c[nH]c2ccccc2c1=O	-12%	8%	/	-6%	53%[activator]	/	/	/
CN(C)/N=C/c1cc([N+](=O)[O-])ccc1O	-18%	/	/	-10%	19%	/	3%[46.1 µM]	?
CC1CCCCN1C(=O)CCNS(=O)(=O)c1ccc2c(c1)c(=O)n(C)c(=O)n2C (stereo not given)	5%	-9%	/	1%	17%	/	/	/
O=c1c2cc(Br)ccc2[nH]c(=S)n1Cc1ccccn1	-6%	8%	-11%	18%	28%	-17%	18%	-7%
COc1ccccc1NC(=O)COC(=O)C1CCN(/C=C/C(=O)C(F)(F)F)CC1	-22%	-2%	-1%	9%	2%	-4.1%	-18%	-6%
CCSc1cc(N2CCCC2)nc(-c2ccc(C)cc2)n1	0%	7%	-13%	-3%	-12%	-1.9%	?	25%
O=C(CN1CCN(S(=O)(=O)c2ccccc2)CC1)Nc1ccc2c(c1)OCO2	-12%	-8%	-2%	-6%	-7%	1.7%	-12%	0%[46.1 µM]
COc1ccccc1N1CCN(C(=O)CN2C(=O)COc3ccc(S(=O)(=O)N4CCCCCC4)cc32)CC1	/	/	?	/	-21%	-4.9%	-15%[46.1 µM]	?
O=C(O)c1cc2c(s1)-c1ccccc1CC2	-28%	-40%	-4%	-40%	-8%	-0.6%	?	?
COc1ccccc1NC(=O)C(NC(=O)c1ccc(C)cc1)c1ccccc1 (stereo not given)	-15%	2%	/	-3%	10%	/	?	?
COc1ccccc1NC(=O)c1cc2c(CO)cnc(C)c2oc1=Nc1cccc(C(N)=O)c1	-1%	3%	/	1%	-27%	/	/	/
COc1ccccc1Cc1nc2ccccc2nc1SCC(=O)Nc1c(C)cccc1C	/	/	-9%	/	17%	2.1%	21%[46.1 µM]	/
N=C1N(/N=C/c2ccccc2)C(=Nc2ccccc2)C(=S)N1c1ccccc1	-1%[3.69 µM]	14%	?	26%	-17%	-10%	6%	-12%
CC(=O)NC1=NN(C(C)=O)C(c2sccc2C)S1 (stereo not given)	-3%	-4%	-2%	-1%	19%	0.9%	23%	-1%
O=C(Nc1nnc(SCc2ccc(F)cc2)s1)c1ccc2c(c1)C(=O)N(c1ccccc1Cl)C2=O	-5%	10%	/	-1%	-18%	/	14%[46.1 µM]	15%[46.1 µM]
Cc1cc(Cl)c(OCCCNC2CCCC2)c(Br)c1	-18%	-28%	/	-10%	1%	/	?	?
COc1cccc(NC(=O)c2cnc(SC)nc2C)c1	-11%	-3%	/	-1%	7%	/	/	/
CCSc1nnc(NC(=O)C(NC(=O)c2ccc(Cl)cc2)C(C)C)s1 (stereo not given)	2%	10%	-6%	3%	-9%	-3.7%	12%	-12%
COCCCC1CCN(C(=O)c2cc(COc3ccc(C)nc3)on2)CC1	24%	11%	/	-3%	-21%	/	?	?
COc1ccc(C2CC(=O)Nc3n[nH]c(-c4ccccc4)c32)cc1OC (stereo not given)	3%	-1%	/	0%	8%	/	1%	10%
O=C(NNC(=O)c1nc(Cl)ccc1Cl)c1ccc(F)cc1	-4%	2%	/	-1%	-11%	/	/	/
Cc1c(N2C(=O)SC(CC(=O)O)C2=O)c(=O)n(-c2ccccc2)n1C (stereo not given)	6%	-5%	1%	-4%	10%	2.5%	?	12%

Following part.
SMILES	RE007 growth inh	NS1 function inh	Cruzain inh noDet	SARS PLpro yeast	2A StopGo	Cruzain inh Det	LASV entry inh	MARV entry inh
Cc1ccc(-c2csc(NC(=O)c3ccc(S(=O)(=O)N4CCc5ccccc54)cc3)n2)cc1	-10%	7%	5µM*	2%	?	0.7%	-10%	-33%
COc1ccc(-n2c(COc3ccc(Cl)cc3)nnc2SCc2ccc(C#N)cc2)cc1	-5%	9%	20%	-4%	-18%	0.3%	?	-18%
CS(=O)(=O)N(CC(=O)Nc1cccc(Cl)c1Cl)c1ccccc1	0%	2%	6%	-4%	1%	0.6%	0%	-5%
Cc1cccc(-n2c(N)cc(=O)nc2SCC(=O)Nc2ccccc2)c1	0%	?	-13%	2%	0%	-5.8%	3%	9%
O=C(Nc1cc(S(=O)(=O)N2CCOCC2)ccc1N1CCCC1)C1CC1	9%	/	/	0%	-5%	/	2%[46.1 µM]	16%[46.1 µM]
O=C(Nc1nonc1-c1ccc(F)cc1)c1ccco1	6%	-4%	/	6%	3%	/	/	/
COc1cccc(NC(=O)CN2CCN(CC(=O)Nc3ccccc3Cl)CC2)c1	3%	-4%	/	-1%	17%	/	/	/
CCOC(=O)c1cnc2ncnn2c1N	0%	3%	/	1%	-3%	/	/	/
Cn1cc(/C=C2\C(=O)NC(=O)N(c3ccccc3)C2=O)c2ccccc21	4%	0%	/	0%	2%	/	-29%[46.1 µM]	17%[46.1 µM]
CCCCNC(=O)N1CCN(c2ccnc3cc(Cl)ccc23)CC1	1%	-1%	/	-1%	32µM*	/	0%	?
O=C(CCCN1C(=O)/C(=C/c2cccs2)SC1=S)Nc1ccc(C(=O)O)cc1	13%	-25%	/	2%	6%	/	1%	21%[46.1 µM]
COc1ccc(Cc2nnc(NC(=O)c3cc(OC)c(OC)c(OC)c3)s2)cc1OC	5%	3%	/	0%	-17%	/	-23%[46.1 µM]	?
O=C(NC1CCCCC1)C(c1ccccn1)N(C(=O)c1csnn1)c1ccccc1 (stereo not given)	11%	6%	/	0%	1%	/	20%[46.1 µM]	4%[46.1 µM]
CCc1nn(CC(=O)N2CCN(c3cccc(C)c3C)CC2)c(=O)c2cc3occc3n12	/	/	-3%	/	-18%	-1.3%	24%[46.1 µM]	2%[46.1 µM]
CCCOc1ccc(CCC(=O)O)cc1	2%	-1%	/	-1%	-2%	/	9%	3%
Cc1ccc(OCCSc2cc(C)nc(N)n2)cc1	-28%	-121%	-3%	-2%	17%	-5.5%	?	13%
COC(=O)CCC(=O)N1CCCC(CO)(Cc2ccccc2)C1 (stereo not given)	3%	-2%	/	0%	89%[activator]	/	/	/
COc1ccc(NC(=O)CN2C(=O)CSC(C)C2=O)cc1 (stereo not given)	-7%	1%	/	0%	47%[activator]	/	3%	9%
CCN(CC)c1ccc(/C=N/Nc2nc(C)cc(C)n2)cc1	-12%	-3%	/	9%	9%	/	?	10µM*
COc1ccccc1NC(=O)NNC(=O)COc1ccc2ccccc2c1	0%	-2%	/	0%	?	/	/	/
O=C(NCc1ccccc1)C(c1ccc(F)cc1)N(Cc1ccco1)C(=O)c1ccccn1 (stereo not given)	-5%	-19%	1%	-3%	-4%	-0.1%	?	?
N#Cc1ccc(C(=O)CSc2n[nH]c(=O)n2Cc2ccco2)cc1	5%	-8%	/	1%	-15%	/	-20%	-9%
CC(C)NC(=O)COc1ccc(Cl)cc1Cl	-16%	-15%	4%	9%	/	-0.2%	-5%	-5%
O=C(NCCN1CCCCCC1)C1CCC(CNS(=O)(=O)c2cccc3cccnc23)CC1 (stereo not given)	-12%	4%	-28%	-4%	4%	?	/	/
COc1ccc(CCNc2nc(-c3cccnc3)cs2)cc1OC	-3%	-5%	0%	1%	?	-0.7%	?	?
CCCC(=O)C1=C(O)C(C(=O)OC)C(C)(C)CC1=NCCCCCC(=O)O (stereo not given)	8%	-1%	/	1%	-12%	/	/	/
CC(Oc1ccccc1F)C(=O)NC1CCS(=O)(=O)C1 (stereo not given)	9%	-3%	/	0%	0%	/	/	/
